PABP FP inh: PABP-poly(A) binding inhibition; P11940; PABP-poly(A) RNA binding, fluorescence polarization; inhibition, % at 35 µM; 1% of 290,000 active;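 active means 50% or more with normal probe brightness, or confirmed in later tests; about a fifth of its hits are not listed in these tables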;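 further: calls also rest on retests at 20 µM and on dose response follow-up; controls were probe without protein and protein plus probe with vehicle; some compounds called inactive have numbers as strong as hits; many hits fall short of the cut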
HIV Env fusion: blocks HIV Env-driven cell-cell fusion. HeLa-JRFL Env/CEM21 cell fusion, luciferase. inhibition, % at 12.3 µM. 1.1% of 360,000 active;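 active means mean replicate inhibition score of at least 50 and every replicate individually at or above 50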;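 further: 0% = plate neutral controls and 100% = maraviroc near 300 nM; one replicate is shown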
Rce1 inhib: blocks yeast Ras-converting enzyme. Q03530. 0.27% of 290,000 active. yeast membranes, quenched prenylated peptide cleavage fluorescence. calls only;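 active means fall in fluorescence gain of 50% or more versus controls, with final raw signal at or below 3038400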;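 further: plate controls were neutral control wells for no effect and wells lacking membranes for full effect; tested at 10 µM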
Target sequence (Q03530 whole entry, looked up): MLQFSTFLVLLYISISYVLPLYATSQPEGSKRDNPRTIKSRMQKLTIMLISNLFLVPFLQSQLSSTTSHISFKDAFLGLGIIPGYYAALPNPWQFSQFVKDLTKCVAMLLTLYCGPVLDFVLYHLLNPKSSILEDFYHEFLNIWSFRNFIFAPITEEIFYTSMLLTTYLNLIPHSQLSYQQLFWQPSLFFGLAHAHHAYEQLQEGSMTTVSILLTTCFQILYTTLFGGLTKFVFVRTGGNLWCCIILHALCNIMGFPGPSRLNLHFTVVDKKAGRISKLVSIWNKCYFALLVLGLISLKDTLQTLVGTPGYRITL
CSC inhib: cancer stem cell inhibition; cancer stem cell-like cells viability, luminescence; inhibition, % at 7.5 µM; 1.1% of 300,000 active; AID 2717;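 active means mean at 75% or more and at least half the replicates too; tested in HMLE shEcad cells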;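 further: 0% = median of negative and 100% = median of positive control wells; the first replicate is given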
Yeast UUG start: yeast start codon fidelity modulation | S. cerevisiae UUG-firefly luciferase reporter, luminescence/redox ratio | 0.13% of 350,000 active | activity score, % at 18.7 µM;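 active means replicate mean at a twofold rise or more, about +100% in these data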;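 further: firefly luciferase made from a UUG start codon reports start codon fidelity; reporter light over untreated wells divided by growth signal over untreated wells; some hits fall short of that in this replicate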
MT1-MMP act inh: MT1-MMP (human) activation inhibition. GFP/RFP ratio change, % at 20 µM. P50281. AID 651647. HT1080 RFP-PRO-GFP cells, GFP/RFP ratio fluorescence, overnight; percent of plate control window, DMSO zero. 0.061% of 360,000 active;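 active means GFP/RFP ratio change of at least 30% with cell ATP level not reduced by more than half and red fluorescence within 50% of control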; further: strong numbers were not always called active
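system = RFP-PRO-GFP reporter HT1080 cells | dosing = 20 µM single dose, 1% DMSO | timing = overnight cell settling, then overnight compound exposure, 37 °C, 5% CO2 | read-out basis = GFP/RFP fluorescence ratio | controls = DMSO and RFP-L50D-GFP cell wells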
eIF4H inh: inhibitors of RNA binding by human eIF4H; Q15056; eIF4H fluorescence polarization binding assay; inhibition, % at 35 µM; 0.94% of 290,000 active;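 active means 50% or more with normal probe brightness, or confirmed in later tests; about a fifth of its hits are not listed in these tables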;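 further: calls also rest on retests at 20 µM and on dose response follow-up; 0% = protein and probe with vehicle and 100% = probe without protein; strong numbers were not always called active; many hits fall short of the cut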
eIF4H inh retest: second read-out of eIF4H inh, no call of its own (marks repeat the call); inhibition, %; compound at 20 µM; confirmation average;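 mean of two retest wells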
PABP FP inh retest: further read-out of PABP FP inh, marked with its call; inhibition, %; compound at 20 µM; confirmation repeats;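 mean of two retest wells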
MT1-MMP act inh RFP: also measured in MT1-MMP act inh; calls as there; RFP signal change, %; measured here: RFP expression control read;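 0 = vehicle wells; hits needed this value within 50% of zero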
Starred values were filed as active, the others as inactive; i = inactive; . = no result given; + = active, no number.

SMILES | PABP FP inh | HIV Env fusion | Rce1 inhib | CSC inhib | Yeast UUG start | MT1-MMP act inh | MT1-MMP act inh RFP | eIF4H inh | others
CC1CCN(CCCNC(=O)CN2C(=O)CSc3ccc(S(=O)(=O)N4CCC(C)CC4)cc32)CC1 | . | 2 | i | -5 | -7 | 1 | 1 | .
C[C@H](CO)N1C[C@H](C)[C@@H](CN(C)S(=O)(=O)c2cccs2)Oc2ccc(NC(=O)Nc3ccccc3)cc2C1=O | . | 8 | . | . | 3 | 1 | 0 | .
CN(C)c1nc(-c2ccccc2)cc(C(F)(F)F)c1C#N | -4 | . | i | 0 | 2 | 1 | 4 | 0
COCCCNC(c1ccccc1)c1ccncc1 (centres undefined) | 1 | 4 | i | 5 | -16 | -4 | -2 | -5
COc1ccc(CCNCc2c(-c3ccccc3)n(C)c3ccccc23)cc1 | 6 | 2 | i | 7 | -18 | 2 | 2 | 7
Cc1cc(Oc2nc3ccccn3c(=O)c2/C=C(\C#N)C(=O)NC2CCS(=O)(=O)C2)ccc1Cl (centres undefined) | 0 | -10 | . | 4 | -6 | 0 | 0 | 0
COc1cc(OC)cc(-c2c(-c3cccs3)c3cc(-c4ccc5cc[nH]c5c4)ccc3n2C)c1 | . | 9 | . | 24 | -23 | 3 | -5 | .
O=C(CSc1nnc(CNc2ccc(Cl)cc2)n1Cc1ccccc1)NCc1ccco1 | -3 | -36 | . | 15 | -6 | 2 | 0 | 2
CC1CCCN(C(=O)COc2ccc3c(c2)OCO3)C1 (centres undefined) | 8 | 0 | i | -10 | -24 | -1 | -3 | 18
CCCCOc1ccc(Cl)cc1CSc1nncn1N | -13 | -71 | i | -6 | . | -2 | 0 | 0
CC(C)(C)NC(=O)C(c1ccc(O)cc1)N(C(=O)CCC(=O)Nc1nccs1)c1ccc(F)cc1 (centres undefined) | 1 | 41 | i | 0 | . | -11 | -8 | -4
CCC(C)(C)c1ccc(OC(=O)c2cccnc2Cl)cc1 | 0 | -10 | i | -6 | -6 | -1 | 2 | 0
N#CC1(NC(=O)COc2ccc3oc4ccccc4c3c2)CCCCC1 | -8 | 2 | i | 11 | . | 6 | 0 | -3
CCN(C(=O)c1cc(S(=O)(=O)N2CCc3ccccc32)cn1C)c1ccccc1 | -12 | 6 | i | . | 16 | -3 | -7 | -14
Cn1c(=O)c(C(=O)NCc2ccc(Cl)cc2)c(O)c2ccccc21 | 2 | 7 | i | 8 | -3 | 0 | 4 | -1
CCOc1ccc(OCC)c(NS(=O)(=O)c2cccc3nsnc23)c1 | -3 | 14 | i | 11 | -20 | 3 | -1 | 10
Cc1ccccc1NC(=O)c1ccc(CN(c2ccccc2)S(=O)(=O)c2ccccc2)cc1 | 10 | -26 | i | 14 | -4 | 0 | -6 | 3
CCCCC(CC(O)COCC(C)C)C(=O)NN (centres undefined) | 4 | -6 | i | 4 | . | 3 | 6 | 7
O=C(CC1Nc2ccccc2NC1=O)Nc1ccccc1 (centres undefined) | -9 | . | i | 100* | -10 | -9 | 4 | 1
CSc1nnc(-c2ccc(S(=O)(=O)N3CCCCC3)cc2)o1 | -7 | -5 | . | 3 | -16 | -1 | -1 | -3

Structures above that contain an aryl methoxy group (two):
SMILES | PABP FP inh | HIV Env fusion | Rce1 inhib | CSC inhib | Yeast UUG start | MT1-MMP act inh | MT1-MMP act inh RFP | eIF4H inh | others
COc1ccc(CCNCc2c(-c3ccccc3)n(C)c3ccccc23)cc1 | 6 | 2 | i | 7 | -18 | 2 | 2 | 7
COc1cc(OC)cc(-c2c(-c3cccs3)c3cc(-c4ccc5cc[nH]c5c4)ccc3n2C)c1 | . | 9 | . | 24 | -23 | 3 | -5 | .

The main list resumes with the 3 entries that preceded the break.
SMILES | PABP FP inh | HIV Env fusion | Rce1 inhib | CSC inhib | Yeast UUG start | MT1-MMP act inh | MT1-MMP act inh RFP | eIF4H inh | others
CCCCC(CC(O)COCC(C)C)C(=O)NN (centres undefined) | 4 | -6 | i | 4 | . | 3 | 6 | 7
O=C(CC1Nc2ccccc2NC1=O)Nc1ccccc1 (centres undefined) | -9 | . | i | 100* | -10 | -9 | 4 | 1
CSc1nnc(-c2ccc(S(=O)(=O)N3CCCCC3)cc2)o1 | -7 | -5 | . | 3 | -16 | -1 | -1 | -3
COc1cc(/C=C2\N=C(c3ccccc3)OC2=O)ccc1OC(C)=O | 8 | -7 | i | 41 | -11 | 1 | 1 | 1
CCCCN1C(Nc2ccccc2)=NC[C@@H]1C | . | 13 | . | -4 | -23 | 0 | 1 | .
O=C(c1ccco1)N1N=C(c2ccc3nccnc3c2)CC1c1ccccc1 (centres undefined) | -1 | -9 | i | -18 | . | 1 | 0 | -2
Oc1ccc(N2CCN(C(=S)NCc3ccccc3)CC2)cc1 | -5 | 28 | i | 77* | . | -6 | -3 | 3
CCOC(=O)c1sc(NC(=O)CSc2nc3c(cc2C#N)CCCCC3)c(C#N)c1C | -5 | . | i | 35 | 5 | -60 | -16 | -10
COc1ccc(NC(=O)COc2ccc(C)c(C)c2)cc1S(=O)(=O)N1CCCCC1 | . | 0 | i | 6 | 28 | -8 | -19 | .
CN(Cc1ccc(Cl)cc1)C(=O)c1ccc2ccccc2n1 | 12 | 12 | i | . | -1 | 3 | 4 | 60 | eIF4H inh retest=2;PABP FP inh retest=2
COC(=O)c1sccc1NC(=O)c1cc(-c2cccc(C)c2)nc2ccccc12 | -6 | . | i | -2 | . | 1 | 2 | -4
CCCCOc1ccc(/C=N/NC(=O)c2csc(C)c2C)cc1 | -1 | . | i | -17 | -23 | 7 | 5 | 8
Cc1ccc(-n2c(CNC(=O)c3cccs3)nnc2SCC(=O)NO)cc1 | -2 | -6 | i | 14 | -18 | 2 | 4 | 1
CC(=O)N(Cc1ccccc1)c1nc(-c2ccccc2)cs1 | 3 | -13 | i | -11 | . | 3 | -2 | -9
COc1ccc(NC(=O)C(Cl)=C(Cl)Cl)cn1 | 74 | 1 | i | . | . | 0 | 2 | 6 | eIF4H inh retest=6;PABP FP inh retest=-7
O=C(O)c1ccccc1C=NN1CCCCCC1 | . | 8 | . | . | -17 | 3 | 4 | .
Cc1cccc(-n2c(-c3csc4ccccc34)n[nH]c2=S)c1 | 6 | -14 | i | -1 | . | -2 | -2 | -4
Cc1[nH][nH]c(=O)c1C(c1c(C)[nH][nH]c1=O)c1cn(Cc2cccc3ccccc23)c2ccccc12 | -2 | . | . | . | -28 | -4 | -3 | -6
CCOc1ccc(N(CC(=O)NN=C2CCN(C)CC2)S(C)(=O)=O)cc1 | -13 | . | i | -8 | . | 2 | 4 | -4
O=C1NC(NS(=O)(=O)c2ccccc2)(C(F)(F)F)C(=O)N1c1ccc(F)cc1 (centres undefined) | 12 | -16 | i | -10 | . | 4 | 9 | -4
COc1ccc(CNCCNC(=O)c2ccco2)c(OC)c1OC | 4 | -37 | . | -6 | -18 | 5 | 2 | -7
CC(C)CC(=O)Nc1ccc2oc(-c3cccnc3)nc2c1 | 2 | . | + | -1 | -9 | 3 | 1 | -1
C[C@@H]1CC=C[C@H]2[C@H]1C(=O)N(Cc1ccccc1)[C@H]2c1ccc(-c2ccc(F)cc2)cc1F | 2 | 28 | i | 39 | -24 | 6 | -4 | -3
O=C(Nc1ccc(CN2CCS(=O)(=O)CC2)cc1)c1ccc(Cl)cc1 | -7 | -4 | i | 25 | -14 | -3 | -20 | 2
Cc1c(NC(=O)c2ccccc2NS(=O)(=O)c2ccc(F)cc2)c(=O)n(-c2ccccc2)n1C | 3 | . | i | -11 | -3 | 0 | 3 | 6
COc1cccc(C(=O)C[n+]2ccccc2/C=N/O)c1 | -2 | -453 | i | -14 | . | -4 | -2 | 14
Cc1ccc(C)c(CSc2nnc([C@@H](N)C(C)C)o2)c1 | 9 | -19 | i | -9 | 21 | 6 | 6 | -2
COc1cc(/C=C2/C(=N)N3OC(C)=CC3=NC2=O)ccc1OC(=O)c1ccco1 | -6 | -5 | i | 0 | . | -9 | 4 | -2
CCC(=O)c1ccc(OCCn2cncn2)cc1 | 12 | 16 | i | 3 | -23 | 4 | 5 | -1
COC(=O)c1c(NC(=O)c2ccc(Br)o2)sc(C)c1C | -1 | -15 | i | 9 | -3 | -5 | -3 | -2
C=CCOC(=O)C1=C[C@@H](c2cn(C(C)=O)c3ccccc23)C[C@@H](OCc2ccc(CO)cc2)O1 | . | -33 | i | -12 | -15 | -7 | -5 | .
CCOc1cc(/C=N/n2nnnc2N)ccc1OCc1c(C)no[n+]1[O-] | 19 | 8 | i | 0 | 4 | 1 | -5 | -11
CC1(C)CC(NC(=O)c2cccc(S(=O)(=O)Nc3cccc(Cl)c3)c2)CC(C)(C)N1 | . | -5 | . | . | -16 | 0 | 0 | .
c1ccc(-c2ncc(CSc3nncn3-c3ccccc3)s2)cc1 | -4 | . | i | -1 | . | -1 | -6 | -2
CN(C)CCN1CCN(C2CN(Cc3ccccc3)S(=O)(=O)C2)CC1 (centres undefined) | . | -25 | . | . | 0 | 4 | 5 | .
CCC(CC)NC(=O)CN(c1ccccc1OC)S(=O)(=O)c1cccs1 | -4 | -26 | i | -2 | -22 | 3 | 5 | -4
CCOC(=O)c1c(NC(C)=O)sc2c(O)c(Br)cc(Br)c12 | 3 | -4 | i | -4 | . | -8 | 1 | 5
CCOc1ccc(/C(O)=C2/C(=O)C(=O)N(CCN(C)C)C2c2ccccc2)cc1Cl (centres undefined) | -1 | -4 | i | -12 | -5 | 3 | 6 | 3
c1ccc(Cc2nn3c(C4COc5ccccc5O4)nnc3s2)cc1 (centres undefined) | 4 | . | i | -4 | -27 | -1 | -2 | -8
O=C(COC(=O)c1cccnc1Cl)Nc1cc(S(=O)(=O)N2CCCCC2)ccc1Cl | -7 | 9 | i | 1 | . | 4 | -2 | -10
CC[C@H](C)[C@@H]1NC(=O)c2cc([N+](=O)[O-])cc(F)c2OCC[C@@H](C(N)=O)NC(=O)[C@H](CCCCN)NC1=O | 0 | -32 | i | -2 | 50 | -5 | 8 | 5
O=C(c1ccc(S(=O)(=O)Cc2ccccc2Cl)c([N+](=O)[O-])c1)N1CCN(c2ccccn2)CC1 | -1 | 28 | i | 37 | -15 | -5 | -8 | 8
c1ccc(NC(=NCc2ccco2)c2ccccc2)cc1 | -2 | 1 | . | . | 3 | 3 | 0 | -10

No new results follow: 2 of the compounds above.
SMILES | PABP FP inh | HIV Env fusion | Rce1 inhib | CSC inhib | Yeast UUG start | MT1-MMP act inh | MT1-MMP act inh RFP | eIF4H inh | others
O=C(c1ccc(S(=O)(=O)Cc2ccccc2Cl)c([N+](=O)[O-])c1)N1CCN(c2ccccn2)CC1 | -1 | 28 | i | 37 | -15 | -5 | -8 | 8
c1ccc(NC(=NCc2ccco2)c2ccccc2)cc1 | -2 | 1 | . | . | 3 | 3 | 0 | -10

Screens as filed in PubChem BioAssay.
